Screening results from PubChem.
ClpP mod: qHTS Assay for Activators of ClpP | Potency, µM (titrated, usually from 57.5 µM), inactives show at the top dose activity change, negative = active | AID 651965, 2013 | purified B. subtilis ClpP, FRET peptide cleavage, 20 min | ATP-dependent Clp protease proteolytic subunit (Bacillus subtilis (strain 168)), P80244 | 1.9% of 340,000 active; active = well fitted falling curve with a large enough effect; inconclusive = small, poorly fitted or top-dose-only effect; inactive = no such curve, though single readings can be large or run the other way; further: potency means the concentration at half of the fitted maximal effect; the source files actives as falling curves though it sought activators and does not explain the sign; nearly all actives have a fitted effect of over 65% in size; many hits overshoot -100%
Target sequence (P80244 whole entry, looked up): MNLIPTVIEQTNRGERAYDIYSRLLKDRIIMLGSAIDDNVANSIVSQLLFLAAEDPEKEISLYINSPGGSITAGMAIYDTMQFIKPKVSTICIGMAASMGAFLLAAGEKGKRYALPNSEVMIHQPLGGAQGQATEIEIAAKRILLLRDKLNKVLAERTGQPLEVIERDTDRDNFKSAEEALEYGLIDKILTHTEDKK
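Purified B. subtilis ClpP, 10 microg/mL final in Tris/HCl pH8 with KCl, BSA, glycerol and Tween-20, cleaved an Abz/nitrotyrosine-quenched decapeptide. Fluorescence (ex 320, em 430) was read at 0 and 20 min at room temperature. Delta was normalized to 5.8 microM ADEP and DMSO/no-enzyme controls.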
gsp antag: qHTS for Antagonists of gsp, the Etiologic Mutation Responsible for Fibrous Dysplasia/McCune-Albright Syndrome: qHTS. gsp-mutant cells, cAMP HTRF, 30 min; control for the full effect not named in the record. Potency, µM (titrated, usually from 76.9 µM), for inactives: at the highest dose activity change, negative = inhibition, actives largely listed as inhibitors. 0.4% of 340,000 active; active = falling curve of any shape with a large fitted effect; inconclusive = falling curve, mostly with a smaller effect; inactive = flat or rising curve; cell line not stated here;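 further: intracellular cAMP measured with PDE inhibitor Ro 20-1724 present during compound exposure; potency means the concentration at half of the fitted maximal effect; on the % scale 0 is the no-effect control and ±100 the full control effect; nearly all actives have a fitted effect of over 65% in size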
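HTRF cAMP measurement after 30 min RT detection following 30 min, 37C compound treatment alongside […] (added as 300 uM solution) in G418-selected cells seeded at 2000/well and grown 16–24 h.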
PINK1 modulator: A Quantitative High throughput Screen to Identify Chemical Modulators of PINK1 Expression; PINK1 immunofluorescence, high-content cytometry, 24 h; Potency, µM (highest dose often 76.6 µM), for inactives: at the highest dose activation (PINK1 increase), actives largely listed as activators; 0.2% of 410,000 active; active = well fitted activation curve with a large enough effect; inconclusive = small, poorly fitted or top-dose-only effect; inactive = flat fitted curve, though single readings scatter; cell line not stated here;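 further: potency means the concentration at half of the fitted maximal effect; % of control where 0% means no effect; nearly all actives have a fitted effect of over 65% in size; a mitochondrial uncoupler was the plate control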
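Measures PINK1 amount and localization on or inside mitochondria by immunofluorescence. Stable cells get compounds at 5 concentrations for 24 hours before fixation and staining; CCCP controls included.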
gsp ag: qHTS for Agonist of gsp, the Etiologic Mutation Responsible for Fibrous Dysplasia/McCune-Albright Syndrome: qHTS | AID 624287, 2012 | gsp mutant cells, cAMP HTRF, 30 min; control for the full effect not named in the record | 0.13% of 340,000 active | Potency, µM (doses to about 76.9 µM), without a hit: top-dose activation (cAMP increase), hits mostly activators; active = well fitted activation curve with a large enough effect; inconclusive = small, poorly fitted or top-dose-only effect, or another doubt; inactive = no such curve, though single readings can be large or run the other way; cell line not stated here;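 further: phosphodiesterase inhibitor Ro 20-1724 added with compounds to block cAMP breakdown; potency means the concentration at half of the fitted maximal effect; nearly all actives have a fitted effect of over 60% in size; about a fifth of the inactives were tested at one dose only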
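Cells stably selected in G418 were plated at 2000/well, grown 16-24 hr, then given compounds in DMSO with the PDE inhibitor […] (300 uM solution added) for 30 min at 37C; cAMP was read by HTRF.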
Sfp PPTase inh: qHTS Assay for Inhibitors of Bacillus subtilis Sfp phosphopantetheinyl transferase (PPTase) | 4'-phosphopantetheinyl transferase ffp (Bacillus subtilis), Q9F4F7 | Biochemical Sfp PPTase activity, qHTS | Potency, µM, without a hit: max response, negative = inhibition, most hits filed as inhibitors | 3.5% of 310,000 active | AID 1490, 2009; active means well fitted inhibition curve with a large enough effect; inconclusive means small, poorly fitted or top-dose-only effect, or another doubt; inactive means no such curve, though single readings can be large or run the other way;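 further: the enzyme is Sfp with the accession as filed and its product quenches rhodamine fluorescence; potency means the concentration at half of the fitted maximal effect; 0% = enzyme reaction without inhibitor and -100% = no enzyme wells; top concentration of the series not given in the record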
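Buffer: 50 mM Hepes-Na pH 7.6, 10 mM MgCl2, 0.01% Nonidet P-40, 0.01% BSA. Enzyme 15 nM, pre-exposed to compound 15 min; substrates then added and fluorescence change tracked over 30 min.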
D2 ag: Beta-Arrestin HTS for Positive Allosteric Modulators of the Human D2 Dopamine Receptor: Agonists. D(2) dopamine receptor (Homo sapiens), P14416. DiscoveRx PathHunter D2 beta-arrestin, luminescence, 90 min; 100% = 57 uM dopamine signal. activation, % (no concentration beside the values). 0.084% of 360,000 active; in the data active = activation above about 40%; inconclusive = about 15% to 40%; inactive = below about 15%; further: compound concentration not given in the record; the text of the record calls up to 30% inactive
Target sequence (P14416 whole entry, looked up): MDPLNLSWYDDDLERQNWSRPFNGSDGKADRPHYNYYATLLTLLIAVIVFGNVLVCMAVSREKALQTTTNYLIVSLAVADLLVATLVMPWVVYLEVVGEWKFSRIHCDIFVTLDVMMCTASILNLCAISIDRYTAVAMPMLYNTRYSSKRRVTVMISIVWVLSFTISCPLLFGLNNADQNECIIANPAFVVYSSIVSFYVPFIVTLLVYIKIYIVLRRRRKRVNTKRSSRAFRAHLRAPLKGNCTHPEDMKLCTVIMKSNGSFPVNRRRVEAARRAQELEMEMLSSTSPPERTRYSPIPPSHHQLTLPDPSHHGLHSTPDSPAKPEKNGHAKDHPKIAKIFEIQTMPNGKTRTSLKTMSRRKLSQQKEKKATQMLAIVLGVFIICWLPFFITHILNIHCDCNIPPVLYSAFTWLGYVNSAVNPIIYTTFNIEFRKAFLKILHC
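DiscoveRx PathHunter D2 beta-arrestin cells (2,100/well) attached overnight, then compound-stimulated 90 min at 37 C in HBSS/10 mM HEPES/0.1% Tween-20 buffer; beta-galactosidase complementation read by luminescence after 1 h at ambient temperature. Dopamine 57 uM final (EC100) as control.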
Menin-MLL FL inh: qHTS Assay for Inhibitors Targeting the Menin-MLL Interaction in MLL Related Leukemias: Competition With Fluorescein Labeled MLL-derived Peptide | FP activity change, % at 61.4 µM | Fluorescence polarization, fluorescein-MLL peptide displacement from menin | AID 1766, 2009 | 290,000 tested, under 10 active; inconclusive = falling polarisation curve, or a change in total fluorescence; inactive = total fluorescence flat and polarisation flat or rising; no compound was filed as active; the % refers to the polarisation; negative = inhibition;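 further: % of control where 0% means no effect; inhibitors lower the polarisation; unlabelled MLL peptide was the positive control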
The depositor's hits bear a star; ? = inconclusive; . = not tested or not shown; [ ] = dose if it differs, or a comment.

SMILES	ClpP mod	gsp antag	PINK1 modulator	gsp ag	Sfp PPTase inh	D2 ag	Menin-MLL FL inh
O=C(CCCn1c(=O)[nH]c2ccccc2c1=O)NC1CCCCCC1	?	16%	-1.9%	15%	5%	3.6	-3.6
Nc1nonc1-n1nnc(C(=O)N/N=C/c2c(Cl)cccc2Cl)c1CN1CCOCC1	.	-8%	1.8%	16%	0%	-3.1	-16
N#Cc1ccc(-c2ccco2)nc1SCC(=O)c1ccc(Cl)cc1	-6.5%	-12%	?	25%	?	-0.4	?
COc1cccc(C(=O)NCc2ccc(N3CCN(C(=O)OC(C)(C)C)CC3)cc2)c1	5.3%	-28%	-2.2%	4%	-2%	1.1	4.7
COCCNC(=O)C1CCCN(C(=O)COCc2ccccc2)CC1 (configuration not stated)	-1.3%	.	0.5%	.	.	-3.9	.
O=C(CSc1nnc(CNc2ccc(F)cc2)n1CC1CCCO1)Nc1ccccc1 (configuration not stated)	-0.2%	-4%	0.0%	4%	10%	-2.6	3.5
CC(C)(C)OC(=O)N(CCc1ccccc1)Cc1ccccc1OCc1ccc(NC(=O)C2CCC2)cc1	-3.2%	-9%	0.6%	.	.	-3.0	.
CCc1c(N)nc(N)nc1Nc1ccccc1C	2.2%	-21%	1.0%	0%[15.4 µM]	.	3.2	.
Cc1ccccc1Nc1cc(C(=O)NCC2CCCO2)c2ccccc2n1 (configuration not stated)	-2.0%	3%	-1.2%	18%	13%	-1.7	-0.1
O=C1Cc2ccccc2Sc2cc(OCCCN3CCCCC3)ccc21	-0.9%	15%	10%	?	-4%	-6.7	-15
CN(C)CCN(Cc1ccccc1)c1nccc(N(C)C)c1C#N	-16%	-6%	-5.0%[38.3 µM]	?	-14%	-2.3	0.9
CC(=O)N/C(=C/c1ccc(OS(=O)(=O)c2ccc(C)cc2)cc1)C(=O)NCCCO	-1.0%	12%	0.3%	-7%	24%	-4.2	2.1
COc1ccccc1-c1nc(C#N)c(N2CCN(C(c3ccccc3)c3ccccc3)CC2)o1	?	3%	3.1%	-9%	11%	0.4	2.3
O=C(Nc1ccc(C(=O)N2CCOCC2)cc1)c1ccccc1[N+](=O)[O-]	-1.5%	5%	0.5%	-6%	5%	-0.1	.
CCn1nc(NS(=O)(=O)c2ccccc2)c2cc3ccccc3nc21	-2.2%	-10%	-1.1%	7%	32%[activator]	-7.2	.
O=C(Nc1nnc([C@@H]2C[C@H](O)[C@@H](CO)O2)s1)c1cccc2ccccc12	-0.3%	.	2.5%	.	.	-4.2	.
Cc1ccccc1OCCC(=O)OCC(=O)Nc1cc(S(=O)(=O)N2CCOCC2)ccc1Cl	.	-10%	0.5%	3%	4%	4.5	-2.7
O=C(C1CCN(S(=O)(=O)c2ccccc2)CC1)N1CCC1	0.6%	11%	1.4%	29%	.	-4.8	.
COc1ccccc1/C=C/C(=O)Nc1cccc(S(=O)(=O)NC2=NCCCCC2)c1	.	-26%	-0.8%	-6%[15.4 µM]	-3%	-7.4	-3.6
Cc1cccc(NC(=O)c2cc(=O)n(Cc3ccccc3)c(=O)[nH]2)c1	.	-4%	2.2%	-24%	0%	-0.5	0.6
CC(C)(C)c1[nH]c2ccccc2c1/C=N/O	5.5%	0%	1.5%	-2%	-5%	-0.7	4.0
Cc1ccc(-c2nn(-c3ccccc3)cc2/C=N/NC(=O)c2ccc3c(c2)OCO3)cc1	-24%	-19%	-0.1%	19%	6%	2.6	1.2
CCc1ccccc1NC(=O)CN(C)C(=O)COC(=O)c1ccco1	-0.3%	18%	0.3%	-6%	.	-1.7	.
c1ccc(CN2CCN(C3CCCSc4ccccc43)CC2)cc1 (configuration not stated)	0.7%	8%	?	-14%[15.4 µM]	.	-6.9	.
Cn1cnc2c1c(=O)n(Cc1ccccc1C#N)c(=O)n2C	0.9%	14%	0.8%	-28%	4%	-2.6	-1.8
COc1ccccc1/C=C/C=C1N=C(/C=C/c2ccc(Cl)cc2)OC/1=O	-1.5%	5%	3.3%	-40%	-9%	-1.7	6.8
Cc1ccc(C)c(C(C)NC(=O)c2ccc(Br)o2)c1 (configuration not stated)	-2.3%	-2%	1.1%	-16%[15.4 µM]	50µM*	-2.9	7.5
Cc1cc(Br)ccc1NC(=O)c1cnc(N2CCN(c3ccccn3)CC2)c2ccccc12	.	-27%	-0.7%	-12%	17%	?	8.9
CCOC1(OCC)N=C(N)C2(C#N)C(c3ccc(NC(C)=O)cc3)C12C#N (configuration not stated)	-5.5%	1%	0.3%	?	19%	0.1	?
CCOC(=O)CSc1n[nH]c(NC(=O)c2cccc(C(F)(F)F)c2)n1	-11%	-4%	?	30%	-1%	0.1	1.1
Cc1ccc(C(=O)CSc2nc3c([nH]2)c(=O)n(C)c(=O)n3C)cc1	-3.0%	-9%	-0.4%	-31%[inhibitor]	-8%	-1.1	?
CCn1c(O)c(/C=N/n2cnnc2)sc1=S	-2.4%	-4%	-0.6%	-2%	45µM*	0.9	?
COc1ccc(NC(=O)c2c(N)cnn2C)cc1	.	2%	0.0%	-45%[inhibitor]	14%	-0.2	-1.1
Cc1cc(Cc2ccc(N)c(C)c2)ccc1N	.	10%	-2.9%	-13%[15.4 µM]	5%	1.4	2.9
CC(=O)c1cccc(NC(=O)COC(=O)[C@@H](NC(=O)OCc2ccccc2)C(C)C)c1	2.8%	?	-0.7%	-26%	0%	-1.8	13
COc1ccccc1C(=O)Nc1ccc2c(c1)nc(CCNC(=O)c1ccccc1)n2C	.	-3%	9.7%	27%[15.4 µM]	20%	14	1.3
CC(C)(C)c1nn(-c2ccccc2)c2[nH]c(=O)c(C=O)cc12	-1.8%	?	6.3%	2%	16%	-11	4.4
CC(NC(=O)c1ccc(S(=O)(=O)N(C)C)cc1)c1ccccc1 (configuration not stated)	-0.9%	-4%	-3.2%	4%	16%	-3.0	3.6
CN(C)c1ccc2c(c1)Sc1cc(N(C)C)ccc1N2C(=O)c1ccccc1	.	-14%	1.0%	38%	-12%	-3.2	3.0
CC[C@]12c3[nH]c4cc(CCC(=O)N(C)C)ccc4c3CCN1C(=O)[C@@H](CC(=O)NC/C=C(\C)CCC=C(C)C)C[C@@H]2C(=O)N1CCN(C(=O)C2CC2)CC1	-2.1%	-14%	16%	.	.	-0.9	.
O=C(CN1CCN(c2ccccn2)CC1)Nc1cccc(F)c1	-1.4%	-3%	-1.2%	5%	12%	4.1	-0.7
O=C(c1cc(=O)c2ccccc2o1)N1CCN(c2ccccc2)CC1	.	5%	3.8%	-10%	10%	2.6	-2.1
COc1cccc2cc(C(=O)Nc3cc(C)cc(C)c3)/c(=N/NS(=O)(=O)c3ccccc3)oc12	0.3%	14%	11%	21%	11%	7.7	.
CC(Sc1nccn1C)C(=O)NC1(C#N)CCCCC1 (configuration not stated)	-0.3%	11%	1.1%	16%	.	-4.9	.
Cc1cc(Oc2ccc(C(C)(C)C)cc2)nc(N2CCOCC2)n1	-14%	-16%	25%	?	8%	-0.9	0.4
C[C@H](O)[C@@H]1CN2CCc3c([nH]c4ccccc34)[C@@H]2C[C@@H]1N(C)C(=O)NC1CCCCC1	?	.	0.5%	15%	.	-12	.
Cc1cc(NC(=O)COC(=O)C2=NN(c3ccccc3)C(=O)CC2)c([N+](=O)[O-])cc1C	1.1%	-9%	3.4%	0%	.	1.3	.
COc1ccc(NC2CCCN(C(=O)COc3ccc(C(C)=O)cc3)C2)cc1 (configuration not stated)	-9.4%	.	-1.0%	-33%[inhibitor]	.	-2.9	.
O=C(CN1CCc2ccccc2C1)Nc1ccccc1F	-2.2%	-3%	1.8%	-1%[15.4 µM]	10%	?	0.4
Cc1ccc(NC(=O)COC(=O)c2ccccc2F)cc1S(=O)(=O)N1CCCCC1	1.6%	-13%	-0.8%	12%[15.4 µM]	.	-6.8	.
Cc1cccc2sc(NC(=O)[C@H](C)N3C(=O)C4CC=CCC4C3=O)nc12 (some centres not stated)	.	-7%	2.7%	7%[15.4 µM]	11%	1.0	0.5
O=C1c2cccnc2C(O)N1Cc1cccs1 (configuration not stated)	0.2%	6%	1.0%[38.3 µM]	-11%	-11%	-0.4	1.6
Oc1ccc(Br)cc1/C=N/N1CCN(Cc2ccccc2)CC1	-1.4%	1%	1.3%	0%	-1%	-3.8	0.3
CCOC(=O)Cc1csc(NC(=O)CCN2C(=O)c3ccccc3C2=O)n1	0.2%	-5%	1.2%[38.3 µM]	-12%	15%	1.7	2.0
Cc1cc2c(c(C)nn2-c2ccccc2)c(=O)o1	-0.7%	1%	0.4%	10%	20%	-1.5	1.1
CC(C)(C)c1ccc(C2C3=C(CCCC3=O)NC3=C2C(=O)c2ccccc23)cc1 (configuration not stated)	-0.6%	2%	-1.6%	-15%	4%	-1.1	2.1
COc1ccc(C(=O)CSc2nc(C)cc(=O)[nH]2)cc1	-1.8%	-19%	0.7%	-1%	-1%	-1.7	3.5
COC(=O)c1ccc2cc(OC)cc([N+](=O)[O-])c2n1	4.7%	4%	1.9%	-32%	.	-1.5	.
COc1ccc(NC(=O)Nc2cccc(C(=O)N3CCOCC3)c2)cc1OC	-3.7%	-7%[15.4 µM]	-1.6%	-1%	12%	3.3	-3.4
